# From PubChem
# WNV NS2B-NS3 inh – blocks West Nile virus NS2B-NS3 protease activity | P06935 | 65,000 tested, 0.18% active | WNV NS2B-NS3 protease, fluorogenic substrate Ex360/Em465; hits give low values | z-score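 (tested at a level between 10 and 100 µM)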;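 active means z-score at -3 or under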;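 further: score is relative to mean and spread of the compound wells of a plate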
# Target sequence (P06935 1371-1501 limits assumed): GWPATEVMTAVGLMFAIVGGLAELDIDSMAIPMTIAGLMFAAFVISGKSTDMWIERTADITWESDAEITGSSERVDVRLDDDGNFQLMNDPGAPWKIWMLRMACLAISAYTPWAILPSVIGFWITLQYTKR
# Target sequence (P06935 1502-1679 limits assumed): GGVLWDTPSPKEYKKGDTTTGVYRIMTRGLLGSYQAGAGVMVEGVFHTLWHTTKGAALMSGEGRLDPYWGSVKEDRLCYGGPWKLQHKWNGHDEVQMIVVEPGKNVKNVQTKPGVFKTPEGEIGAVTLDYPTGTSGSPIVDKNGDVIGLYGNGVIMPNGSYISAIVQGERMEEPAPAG
# MT1-MMP promoter – MT1-MMP gene expression reporter suppression – cell-based, luciferase reporter, luminescence (AID 618); MT1-MMP promoter luciferase reporter cells, luminescence; calls from a first round at 10 µM; hits with a dose series show EC50 in µM; 87,000 tested, 0.62% active;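 active means over half of the reporter light lost at 10 µM or EC50 under 50 µM; inactive means the rest and hits that failed the dose series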;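 further: actives suppress MT1-MMP promoter-driven transcription so potencies describe inhibitors; HT1080 fibrosarcoma cells; overnight exposure; toxic or luciferase-blocking compounds were not removed from the actives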
# Hsc70 – Hsc70 inhibitors, probe displacement, primary screen, biochemical, fluorescence polarization (AID 568). Hsc70 fluorescence polarization, probe displacement; higher % means a stronger effect; strong numbers were not always called active. one-dose displacement, % at 20 µM; IC50 in µM for titrated hits. 83,000 tested, under 10 active;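 active means displacement above 50% without optical interference and an IC50 on retest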;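 further: ATPase domain with a fluorescein-tagged ATP probe; 0% = vehicle and 100% = excess ADP; read after one hour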
# Active calls of the source: *; i = inactive; . = no result given. Not a hit list, and some 0.87% of all compounds hit somewhere here.
SMILES,WNV NS2B-NS3 inh,MT1-MMP promoter,Hsc70
COc1cccc(-n2nnc3c(=O)n(CC(=O)N4CCC(Cc5ccccc5)CC4)cnc32)c1,-0.05,i,-8.7%
Cc1ccc(S(=O)(=O)N2CCCCC2C(=O)NCc2ccco2)cc1 (centres undefined),0.82,i,1.9%
CN(C)c1cccc2c(S(=O)(=O)Nc3ccccn3)cccc12,0.26,i,-6.1%
CCN(CCCNC(=O)C1CCCN(S(=O)(=O)CC)C1)c1cccc(C)c1 (centres undefined),-0.71,i,6.9%
CC(C)OC(=O)c1cccc(NC(=O)c2ccccc2)c1,.,i,3.0%
CCOC(=O)c1[nH]c(C)c(C(=O)OCC(=O)N(CC)C2CCS(=O)(=O)C2)c1C (centres undefined),.,i,1.7%
COc1ccccc1-c1nnc(SCC(=O)OC(C)C)o1,0.14,i,3.6%
CC(=O)CC1OC(=O)C(Br)=C1NCc1ccccc1 (centres undefined),0.46,i,3.0%
Cc1ccc(CNc2nc3c([nH]2)c(=O)n(C)c(=O)n3C)cc1,0.26,i,-1.4%
COc1ccccc1N(CN1CCCC1=O)C(=O)COc1ccccc1,0.54,i,6.1%
O=C(CSc1nc(-c2ccccc2)nc2c1CCCC2)N1CCOCC1,1.3,i,-3.6%
COc1ccc(C(C)=O)cc1COC(=O)c1cc(C)oc1C,0.97,i,-3.9%
O=C(Nc1ccc(N2CCCC2)c(Cl)c1)c1cccnc1,.,i,5.0%
COc1ccc(C)cc1-n1nnnc1SCC(=O)NC(=O)NCc1ccco1,-0.04,i,0.7%
CCOC(=O)N1CCN(c2c(NCCCOC(C)C)c(=O)c2=O)CC1,-0.22,i,3.0%
COc1cccc(OC)c1OCCNCCO,1.7,i,0.3%
Cc1cccc(Oc2cnn(C(C)(C)C)c(=O)c2Cl)c1,.,i,1.7%
Cc1ccc(C)c(NC(=O)C2CC(O)CN2C(=O)OCc2ccccc2)c1 (centres undefined),0.09,i,2.3%
O=C(CCCCCNc1nc(=S)[nH]c2ccccc12)N1CCN(c2ccccn2)CC1,-1.1,i,-4.2%
Cc1cc(C)n(-c2nc3c(c(=O)n(C)c(=O)n3C)n2CC(O)COc2ccccc2C)n1 (centres undefined),.,i,2.2%
O=C(NCc1ccc2c(c1)OCO2)c1ccc2c(=O)n(C3CCCC3)c(=O)[nH]c2c1,0.14,i,2.4%
COCCNC(=O)CN1CCN(C(c2ccccc2)c2ccccc2)CC1,0.03,i,-4.0%
CCCc1cn(S(=O)(=O)c2ccc(OC)cc2OC)nc1N,-0.48,i,-5.1%
COc1cccc(C2=CC(c3ccc(C)cc3)n3ncnc3N2)c1 (centres undefined),0.74,i,22%
COc1ccc(CNC(=O)CN(Cc2ccccc2)C(=O)c2csnn2)cc1,.,i,5.4%
COc1ccc(C)c2sc(=NC(=O)c3ccc(C#N)cc3)n(C)c12,0.36,i,2.6%
COc1ccc(CCN2C(=O)C3C4CC(C5C(C(N)=O)=NOC45)C3C2=O)cc1OC (centres undefined),.,i,-0.3%
CCCOc1ccc(N2CC(C(=O)Nc3ccccc3C(=O)NCc3ccco3)CC2=O)cc1 (centres undefined),-0.88,i,6.7%
Nc1cc(C(=O)OCC(=O)NCc2ccco2)ccc1Cl,1.7,i,4.1%
O=C(O)C1SCCN1S(=O)(=O)c1ccc2ccccc2c1 (centres undefined),.,i,1.2%
COc1ccc(Cl)cc1S(=O)(=O)N1CCN(C(=O)c2ccco2)CC1,-0.56,i,6.0%
COc1ccc(Cn2nnnc2C(c2ccccc2Cl)N2CCN(C)CC2)cc1 (centres undefined),0.39,i,0.3%
Cc1cccc2cc(COC(=O)c3ccco3)c(=O)[nH]c12,1.4,i,0.9%
CCOC(=O)C1CCCN(S(=O)(=O)c2ccc(Br)c(OC)c2)C1 (centres undefined),-0.7,i,-4.5%
CCN(Cc1cc2ccc(C)cc2[nH]c1=O)C(=O)c1ccncc1,1.1,i,-5.6%
CS(=O)(=O)NCCCc1ccccc1,-0.9,i,-5.6%
Cc1ccc(S(=O)(=O)NC(CN2CCOCC2)=NCCNS(=O)(=O)c2ccccc2)cc1,-0.28,i,-4.8%
CC1CCCC(C)N1CCNC(=O)Cn1nc(-c2ccccc2)ccc1=O (centres undefined),-0.83,i,7.8%
COc1cccc(C(CC(=O)NCC2CCCO2)NS(=O)(=O)c2ccc(C)cc2)c1OC (centres undefined),1.6,i,-1.2%
O=C(Cc1cccs1)Nc1ccc2c(c1)C(=O)OC2,0.09,i,4.4%

# Single records, from the list above. Screens in order: WNV NS2B-NS3 inh | MT1-MMP promoter | Hsc70
# `COc1cccc(-n2nnc3c(=O)n(CC(=O)N4CCC(Cc5ccccc5)CC4)cnc32)c1` in the list: -0.05 | i | -8.7%
# `COc1cccc(C2=CC(c3ccc(C)cc3)n3ncnc3N2)c1` (centres undefined) in the list: 0.74 | i | 22%

# Going on with the list.
SMILES,WNV NS2B-NS3 inh,MT1-MMP promoter,Hsc70
Cn1c(=O)c2c(nc(Sc3ncccn3)n2Cc2ccccc2Cl)n(C)c1=O,.,i,2.5%
CCOC(=O)c1c(-c2ccccc2)c(C(C)=O)c(=O)n(C)c1C,1.1,i,-0.3%
CCn1nnnc1-c1ccc(OC)c(S(=O)(=O)N2CCCCC2)c1,0.53,i,3.6%
COc1ccc(NS(=O)(=O)c2ccc3c(c2)oc(=O)n3C)c(OC)c1,-0.54,i,5.2%
CCc1ccc(OCC(=O)N(C)C2CCS(=O)(=O)C2)cc1 (centres undefined),0.25,i,1.8%
O=C(O)C1Nc2c(O)cccc2C2C=CCC12 (centres undefined),-0.32,i,-3.7%
Cc1c(C(=O)NCc2ccco2)sc2nc(-c3ccccc3)cn12,-0.63,i,5.1%
O=C1c2ccccc2C(=O)N1Cc1nc2ccccc2c(=O)n1CCN1CCOCC1,-0.08,i,-5.1%
Cc1ccc(-c2cc(C(=O)NCC3CCCO3)no2)cc1 (centres undefined),-0.25,i,-1.5%
Cc1cc(C)nc(SC2=CS(=O)(=O)c3ccccc32)n1,1,i,0.1%
COC(=O)C1=C(C)NC2=C(C(=O)CCC2)C1c1coc2ccccc2c1=O (centres undefined),-0.88,i,2.2%
O=C(CNC1CCCCC1)N1CCc2ccccc2C1,.,i,3.5%
CCN(CC)C(=O)CN(C#N)c1nc(OC)nc(N(C)C)n1,-0.79,i,2.0%
Cc1ccc2oc(=O)n(CC(=O)OC(C)C)c2c1,.,i,-0.6%
CC(C)Nc1nc(NC(C)C)nc(N(C)C#N)n1,0.91,i,-0.8%
CSc1ccc(NC(=O)N2CCN(c3nc4ccccc4s3)CC2)cc1,.,i,-2.1%
CCOC(=O)CN1CC23C=CC(O2)C(C(=O)Nc2ccc4c(c2)OCO4)C3C1=O (centres undefined),-1.8,i,1.0%
COc1cccc(N2CC(O)Cn3c2nc2c3c(=O)n(CCCc3ccccc3)c(=O)n2C)c1 (centres undefined),-1,i,-3.0%
Clc1ccccc1COc1ccccc1-c1nnco1,-2.1,i,0.8%
COc1ccccc1NC(=O)CN(c1ccc(C)cc1)S(=O)(=O)c1c(C)n[nH]c1C,-0.74,i,-4.3%

# A portion of the results above:
SMILES,WNV NS2B-NS3 inh,MT1-MMP promoter,Hsc70
Cc1ccc2oc(=O)n(CC(=O)OC(C)C)c2c1,.,i,-0.6%
CC(C)Nc1nc(NC(C)C)nc(N(C)C#N)n1,0.91,i,-0.8%
CSc1ccc(NC(=O)N2CCN(c3nc4ccccc4s3)CC2)cc1,.,i,-2.1%
CCOC(=O)CN1CC23C=CC(O2)C(C(=O)Nc2ccc4c(c2)OCO4)C3C1=O (centres undefined),-1.8,i,1.0%
COc1cccc(N2CC(O)Cn3c2nc2c3c(=O)n(CCCc3ccccc3)c(=O)n2C)c1 (centres undefined),-1,i,-3.0%
Clc1ccccc1COc1ccccc1-c1nnco1,-2.1,i,0.8%
COc1ccccc1NC(=O)CN(c1ccc(C)cc1)S(=O)(=O)c1c(C)n[nH]c1C,-0.74,i,-4.3%

# The list continues:
SMILES,WNV NS2B-NS3 inh,MT1-MMP promoter,Hsc70
N#CCCNC(=O)CCN1CCCCC1,.,i,-3.3%
O=C(N1CCOCC1)C(F)(F)C(=O)N1CCOCC1,-0.8,i,-7.0%
N#Cc1c(SCC(N)=O)nsc1SCc1ccccc1Cl,-0.72,i,-1.0%
COc1cccc2cc(C(=O)C3=C(O)C(=O)N(CCN(C)C)C3c3ccc(F)cc3)oc12 (centres undefined),-1.3,i,4.4%
Cc1c(Cl)cccc1-n1c(SCC(=O)NCc2ccccc2Cl)nnc1-c1ccncc1,.,i,1.6%
CC(=O)C1C(c2ccccc2Cl)NC(=O)NC1(O)C(F)(F)F (centres undefined),-0.51,i,3.2%
CCC(=O)Nc1ccc(-c2nnc(SCC(=O)NCC3CCCO3)n2C)cc1 (centres undefined),0.34,i,-1.2%
CC(C)(CO)NC(=O)CCCOc1ccc(Cl)cc1Cl,-1.1,i,0.4%
O=C(CSc1nnc(-c2ccccc2)o1)c1ccc2c(c1)OCCO2,0.63,i,-1.1%
CN(C(=O)CSc1nnc(-c2ccco2)o1)C1CCCCC1,-1.1,i,-5.8%
c1ccc2c(c1)Sc1ccccc1-n1cnnc1-2,.,i,6.9%
CCN1C(=O)/C(=C2\SC(=S)N(CC3CCCO3)C2=O)c2ccccc21 (centres undefined),-1.6,i,6.0%
O=C(c1ccco1)N1c2ccccc2Sc2ccccc21,-1.1,i,2.6%
COc1ccc(S(=O)(=O)N(C)CC(=O)Nc2ccccc2SC)cc1,-1.2,i,-6.0%
Cc1ccc(-c2[nH]n3c(=O)c4c(nc3c2C)CCCC4)cc1,-0.57,i,5.7%
Cc1noc(C)c1S(=O)(=O)Nc1ccc(C(=O)NC2CCCCC2)cc1,-0.93,i,-4.7%
CCOCc1nnc(NC(=O)c2ccc(OC)cc2)s1,.,i,-0.2%
COCCOC(=O)C1=C(C)N=C2SCCC(=O)N2C1c1cccc(Br)c1 (centres undefined),1.9,i,3.9%
CC(C)OC(=O)C1CC=CCC1C(=O)Nc1ccc(Cl)cc1 (centres undefined),.,i,0.4%
CC1CCN(C(=O)c2ccc3c(c2NCCO)C(=O)c2ccccc2C3=O)CC1,.,i,4.5%
C=CCNc1nc2c(c(=O)n(C)c(=O)n2C)n1CC,0.46,i,-1.0%
Cn1c(N2CCCC2)nc2c1c(=O)n(Cc1cccc(F)c1)c(=O)n2C,-0.71,i,-5.4%
O=C(CN1CCSCC1)N1CCc2[nH]c3ccc(Br)cc3c2C1,-0.62,i,4.1%
COc1ccc(-c2nnc(SCC(=O)NC3CCCCC3)o2)cc1OC,-1.2,i,0.1%
Cc1nn(-c2ccccc2)c(OC(=O)c2cccs2)c1S(=O)(=O)c1ccccc1,-1.2,i,-3.0%
CC(C)(C)c1csc(SCC(=O)Nc2ccc(Cl)cn2)n1,.,i,5.5%
Cc1oc2c(CN3CCOCC3)c(O)ccc2c(=O)c1-c1ccc(Br)cc1,0.22,i,3.4%
O=C(CSc1nnnn1-c1ccc(F)cc1)Nc1ccc(N2CCOCC2)c(Cl)c1,.,i,2.5%
N#CC1=C(N)SC(N)=C(C#N)C1c1c(Cl)cccc1Cl,-0.38,i,1.2%
COc1ccc2nc(NC(=O)c3cc(C)oc3C)sc2c1,.,i,-5.2%
Clc1ccc(-c2nnc(-c3ccccc3)o2)c(Cl)c1,0.39,i,2.7%
CC(C)n1c(-c2cccnc2)nc2cnccc21,-9.4*,i,-1.1%
COC(=O)Nc1sccc1C(=O)Nc1sccc1C(=O)OC,-0.16,i,-24%
CCCCNS(=O)(=O)c1ccc2nc(SCC(=O)c3ccccc3OC)[nH]c2c1,.,i,0.5%
CCOc1ccc(NS(=O)(=O)c2ccc(OCC(=O)NCCCOC)cc2)cc1,-0.32,i,0.2%
CCc1ccc(NC(=O)c2ccccc2NC(=O)C2CCCO2)cc1 (centres undefined),.,i,-0.4%
O=C(/C=C/NNC(=O)c1ccc(Br)cc1)c1ccccc1,.,i,-1.1%
O=C(NCC(=O)N1CCC(N2CCCCC2)CC1)C1CCCCC1,-0.16,i,-3.8%
O=S(=O)(NCCCCCNS(=O)(=O)c1ccc(F)cc1)c1ccc(F)cc1,-0.95,i,-2.9%
O=C(c1cccc2c1C(=O)N(Cc1cccnc1)C2)N1CCN(c2ccccc2)CC1,-0.08,i,-4.1%
CCCS(=O)(=O)N1CCc2cc(OC)c(OC)cc2C1,0.24,i,-1.6%
CN(C)CCCNc1oc(-c2ccccc2)nc1C#N,0.83,i,-1.1%
CC(C)(C)c1cc(C(=O)N2CCc3ccccc32)ccn1,-0.83,i,4.1%
O=C(NC1CCCC1)c1ccc2nc(-c3ccco3)c(-c3ccco3)nc2c1,-1.7,i,4.2%
C[C@H]1C[C@@H]2[C@H]([C@@H](O)C[C@@]3(C)[C@H]2CC[C@]3(O)C(=O)CO)[C@@]2(C)C=CC(=O)C=C12,-0.27,i,-1.9%
CCOC(=O)c1ccc2ncc(C(=O)OCC)c(NCc3ccco3)c2c1,-0.38,i,-2.3%
Cn1c(=O)c2c(nc(N3CCc4ccccc4C3)n2Cc2ccccc2F)n(C)c1=O,-1.6,i,2.7%
CN1CCN(c2nc(N3CCN(c4ccccc4)CC3)ncc2F)CC1,0.14,i,-1.0%
CCCOc1ccc(-c2nnc(-c3ccco3)o2)cc1,1.2,i,-9.1%
O=C(CSc1nnc(C2CC2)n1Cc1ccccc1)c1ccc(S(=O)(=O)N2CCOCC2)cc1,0.59,i,0.9%
O=C1c2ccccc2C(=O)N1CCCCCc1nc(-c2ccccc2)no1,0.97,i,1.2%
Cc1cc(C)n2nc3ccccc3c2n1,-0.86,i,3.2%
C=C1N(CCCCCC(=O)O)C(=O)OC12CCCCC2,0.41,i,-0.2%
